E coli growth: inhibitors of Escherichia coli growth | OD600, 23 h; active compounds read low | OD600 absorbance (test concentration not listed) | 0.21% of 330,000 active | AID 1053175;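 active means OD600 absorbance below the run mean of sample wells minus 3.6 SD, in any replicate, cut at about 0.56 in these data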;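 further: stock transfer was 300 nL into about 60 µL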
ALR H2O2 inh: inhibitors of human sulfhydryl oxidase ALR; P55789; purified ALR, DTT oxidation, H2O2 HRP-luminol luminescence; inhibition, % (test concentration not listed); 3.8% of 290,000 active; AID 485317;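 active means mean and each replicate at 75% or more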;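 further: stock transfer was 7.5 nL into about 7.5 µL; 0% = neutral wells and 100% = wells with inactivated enzyme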
Target sequence (P55789 whole entry, looked up): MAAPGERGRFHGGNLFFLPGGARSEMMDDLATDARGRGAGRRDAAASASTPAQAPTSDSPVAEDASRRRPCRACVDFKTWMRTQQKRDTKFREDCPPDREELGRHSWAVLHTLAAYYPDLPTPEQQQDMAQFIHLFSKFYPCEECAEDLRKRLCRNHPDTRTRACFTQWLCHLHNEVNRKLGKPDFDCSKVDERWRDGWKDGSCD
FGF22 binding: shifts melting point of recombinant human FGF22 | AID 651658 | Q9HCT0 | 1.5% of 340,000 active | calls only at 9.99 µM | recombinant FGF22 thermal shift, SYPRO orange fluorescence; percent of sucrose octasulfate shift, DMSO zero;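 active means melting point raised past a set limit in the mean and every replicate; three in four hits are not shown here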
Target sequence (Q9HCT0 whole entry, looked up): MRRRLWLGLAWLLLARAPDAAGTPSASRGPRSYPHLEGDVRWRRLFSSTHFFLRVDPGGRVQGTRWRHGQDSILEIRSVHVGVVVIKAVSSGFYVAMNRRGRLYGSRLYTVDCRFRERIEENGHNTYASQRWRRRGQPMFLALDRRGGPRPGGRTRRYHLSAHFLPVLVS
LANA-H2A inh: blocks KSHV LANA binding to histone H2A/H2B. cell-free LANA-H2A/H2B peptide, fluorescence polarization. inhibition, % (no concentration beside the values). 0.6% of 320,000 active; in the data active means inhibition mostly above about 10%, no sharp cut-off; inactive means mostly below about 6.7%;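 further: stock transfer was 7.5 nL into about 10 µL; 0% = median of vehicle wells and 100% = median of positive control wells; one replicate is shown; the record names a cut of 25% in any replicate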
HNF4A DNA FP: change in binding of human HNF4 alpha to DNA; P41235; HNF4a-FITC DNA binding, fluorescence polarization, 1 h; activity change, % at 10 µM; 0.3% of 360,000 active; in the data active means activity change above about 30%, passing the limit was not always enough;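 further: controls were the assay level and a saturating level of protein; the project sought stronger binding though the title names inhibitors; some compounds called inactive have numbers as strong as hits; positive values seem to mean higher polarization but the record does not say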
Target sequence (P41235 whole entry, looked up): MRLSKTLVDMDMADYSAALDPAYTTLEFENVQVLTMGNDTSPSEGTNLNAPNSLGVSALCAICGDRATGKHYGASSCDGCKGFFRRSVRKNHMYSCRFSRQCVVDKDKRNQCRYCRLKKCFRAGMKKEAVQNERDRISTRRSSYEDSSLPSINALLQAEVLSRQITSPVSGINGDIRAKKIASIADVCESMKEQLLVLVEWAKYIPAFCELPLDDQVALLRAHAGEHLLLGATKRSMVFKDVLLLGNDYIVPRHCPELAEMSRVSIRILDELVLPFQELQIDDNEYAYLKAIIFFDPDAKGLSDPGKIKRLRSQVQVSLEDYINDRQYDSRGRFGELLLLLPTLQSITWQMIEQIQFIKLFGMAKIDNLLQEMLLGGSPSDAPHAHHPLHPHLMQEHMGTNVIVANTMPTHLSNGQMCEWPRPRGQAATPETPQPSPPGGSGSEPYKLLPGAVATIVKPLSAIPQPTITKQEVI
B2AR ag: activates human beta-2 adrenergic receptor causing internalization; Am2.2-beta2AR cells, FAP receptor internalization, flow cytometry; reference of the scale not given here; P07550; 0.43% of 340,000 active; response, % (test concentration not listed); AID 504454;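 active means response above a set limit, near 3 SD of response in nonfluorescent compounds, cut at about 42% in these data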;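 further: stock transfer was 100 nL into about 11 µL; a reference agonist was the positive control; negative values mostly stem from fluorescent compounds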
UCH37 DUB inh: inhibitors of human deubiquitinating enzyme UCH37. Q9Y5K5. purified proteasome/UCH37, Ub-AMC cleavage fluorescence. inhibition, % (no concentration beside the values). 0.33% of 330,000 active. AID 588478;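 active means mean of two replicates above 20%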;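 further: 0% = compound-free wells with enzyme and 100% = wells lacking proteasome; stock transfer was 100 nL into about 20 µL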
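Signal – fluorescence, ex 355 nm, em 460 nm · System – Proteasome-bound UCH37 · Input – 0.15 nM proteasome as dispensed · Timing – 30 min preincubation with enzyme, 25 min cleavage at room temperature · Read-out basis – percent inhibition of cleavage signal versus uninhibited and no-proteasome wells · Medium – Tris-HCl pH 7.4 with ATP-MgCl2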
* marks the source's active call; other numbers are inactive results; i = inactive; nt = not tested or not shown. Only part of the results is shown; rates above refer to the full screens.

SMILES | E coli growth | ALR H2O2 inh | FGF22 binding | LANA-H2A inh | HNF4A DNA FP | B2AR ag | UCH37 DUB inh
Cc1ccc(C)c(C(=O)COC(=O)c2cccc(N3C(=O)c4c(C)nc5ccccc5c4C3=O)c2)c1 | 0.7 | 1.1 | nt | -2.1 | -1.9 | 5.2 | 4.9
Cc1ccc(C(=O)NCCSC2CCCCC2)cc1S(=O)(=O)Nc1ccccc1 | 0.671 | -3.0 | i | 3.9 | 2.6 | 8.1 | 3.5
COc1ccc(C(C)(C)C)cc1NC(=O)c1[nH]c(C)c(C(C)=O)c1C | 0.672 | 1.3 | i | -0.9 | 1.1 | -7.0 | 0.1
CCCCOC(=O)Nc1cccc(C(C)=O)c1 | 0.656 | -4.5 | nt | -0.8 | 3.5 | 8.6 | -0.8
Cc1ccccc1OCCNC(=O)c1ccc2ccccc2n1 | 0.643 | -0.5 | nt | -1.3 | 5.0 | -10.3 | 2.5
CCOc1ccc(C(=O)NC2CCN(S(=O)(=O)c3ccccc3)CC2)cc1 | 0.613 | -9.6 | i | 0.3 | -3.6 | -2.4 | 2.9
COc1ccc(-c2csc(NC(=O)CSc3nc(C)cs3)n2)cc1 | 0.655 | -6.4 | nt | -0.8 | -1.6 | 2.5 | 0.1
Cc1ccc(C2C(=O)c3ccccc3C2=O)cc1 | 0.65 | -3.1 | i | -3.1 | 1.1 | 7.5 | 2.4
CC(=O)N1CCN(C(=O)CSc2nnc(C)n2-c2ccccc2)CC1 | 0.655 | -5.5 | i | 3.7 | 2.4 | -10.5 | 3.7
CC(C)OC(=O)CCCNc1ccc([N+](=O)[O-])cc1[N+](=O)[O-] | 0.69 | -3.2 | i | 1.0 | 0.6 | -5.6 | 8.2
COc1ccc(OC)c(NS(=O)(=O)c2ccc3c(c2)n(C)c(=O)n3C)c1 | 0.739 | 5.2 | nt | -0.8 | -3.6 | -8.6 | 1.3
COc1ccc(NC(=O)c2cc(C)cc(C)c2)cc1S(=O)(=O)N1CCCCC1 | 0.664 | -0.9 | i | 9.4 | 6.7 | 1.0 | 2.4
CCN(C(=O)CO/N=C/c1ccc(OC)cc1OC)c1c(N)n(Cc2ccccc2)c(=O)[nH]c1=O | nt | -2.6 | i | 2.2 | 0.7 | 0.7 | nt
COCOc1ccc(/C=C2/Oc3cc(OCOC)cc(OCOC)c3C2=O)c(OCOC)c1 | 0.723 | -2.0 | nt | -2.4 | -1.5 | nt | -15.4
Cc1ccc(C(=O)OCC(=O)N2CCNC2=O)c(C)c1 | 0.618 | nt | i | nt | -2.8 | -4.6 | 0.1
Cc1ccc(NCc2nnc(SCC(N)=O)n2CCc2ccccc2)cc1 | 0.647 | nt | i | nt | nt | nt | -2.0
CCOC(=O)N/N=C/c1cc(OC)c(O)c(OC)c1 | nt | 99.2* | i | -2.4 | -3.9 | -4.9 | nt
CCOc1ccc(NC(=O)C2CCCN(S(=O)(=O)c3ccc4c(c3)CC(C)N4C(C)=O)C2)cc1 (centres undefined) | 0.626 | -4.5 | i | -0.3 | 1.4 | 2.6 | 4.3
Cc1c([C@H]2[C@@H](CC#N)C2(C)C)c2ccccc2n1C | nt | 97.1* | nt | -0.4 | -2.0 | 8.4 | 5.6
CCOC(=O)c1sc2ncc([N+](=O)[O-])cc2c1N | 0.672 | -6.6 | i | -0.8 | 0.0 | -0.5 | 5.9
CC(=O)Nc1ccc(NC(=O)COc2ccc(S(=O)(=O)N3CCCC3)cc2)cc1 | 0.675 | -1.7 | i | 2.4 | -0.3 | -14.1 | 2.8
COCCn1c(=O)[nH]c(=O)c2c1nc(-c1ccc(-c3ccc(Cl)cc3[N+](=O)[O-])o1)n2Cc1ccccc1 | 0.702 | nt | i | 5.4 | 3.0 | 28.3 | -16.3
CCOCCn1c(-c2ccccc2)nc2ccccc21 | 0.711 | 4.2 | i | -0.4 | 1.7 | -7.4 | 1.5
Cc1nn(CCCC(=O)Nc2cnn(Cc3ccc(F)cc3)c2)c(C)c1[N+](=O)[O-] | 0.697 | -1.7 | i | -1.3 | -1.2 | 1.0 | 2.0
CCOC(=O)c1c(-c2ccccc2)csc1NC(=O)c1cc(-c2ccccc2OC)on1 | 0.731 | -10.7 | i | 0.9 | -1.6 | -3.4 | -208.6
COC(=O)c1ccc2[nH]c3cccc(/C(=C/c4ccccc4)c4ccccc4)c3c2c1 | nt | -0.7 | i | -0.8 | 1.2 | -2.5 | -7.4
COc1ccc(C(C(=O)NCc2ccccc2)N(C(=O)c2snc(C(N)=O)c2N)c2ccccc2OC)cc1 (centres undefined) | 0.662 | 4.7 | i | 3.8 | 1.1 | -10.2 | -76.1
Cc1noc(NS(=O)(=O)c2ccc(NC(=O)CSc3nnc4c(n3)[nH]c3ccccc34)cc2)c1C | 0.691 | 72.8 | nt | -2.4 | -4.5 | -3.3 | 14.2
CNC(=O)C(=O)Nc1cc2c3c(c1)CCC(=O)N3CCC2 | 0.68 | 2.1 | i | -1.8 | 1.9 | 2.0 | 1.4
COc1cccc(CNC(=O)CSCc2cnn(-c3ccccc3)c2-n2cccc2)c1OC | 0.73 | -9.0 | nt | 1.6 | 2.5 | -6.6 | -1.0
CC(=O)N1CCCc2cc(S(=O)(=O)N3CCCC(C(=O)Nc4ccc(C)cc4C)C3)ccc21 (centres undefined) | 0.691 | -3.9 | i | 3.3 | -1.9 | -6.1 | 3.5
CCOc1ccc(/C=C/C(=O)Nc2ccc(OC)cc2[N+](=O)[O-])cc1 | 0.764 | -9.0 | nt | 15.2 | 23.3 | 5.3 | 8.0
Cc1ccccc1-c1nc(CN2CCC(C(=O)NCC3CCCO3)CC2)c(C)o1 (centres undefined) | 0.657 | -4.3 | nt | 2.0 | 6.3 | -1.7 | 0.7
CCOc1ccc(-c2nc(CCl)cs2)cc1 | 0.636 | nt | i | 1.3 | -1.2 | 2.2 | 1.2
CC(Oc1ccccc1F)C(=O)NN (centres undefined) | 0.695 | 1.0 | i | -3.2 | -0.1 | 1.6 | 5.3
CCN(CC#CCC(O)(c1ccccc1)c1ccccc1)C(C)C | 0.719 | 2.2 | i | 1.1 | -0.4 | 5.0 | -1.0

Looked up by structure from the entries so far:
SMILES | E coli growth | ALR H2O2 inh | FGF22 binding | LANA-H2A inh | HNF4A DNA FP | B2AR ag | UCH37 DUB inh
COc1cccc(CNC(=O)CSCc2cnn(-c3ccccc3)c2-n2cccc2)c1OC | 0.73 | -9.0 | nt | 1.6 | 2.5 | -6.6 | -1.0
CCN(CC#CCC(O)(c1ccccc1)c1ccccc1)C(C)C | 0.719 | 2.2 | i | 1.1 | -0.4 | 5.0 | -1.0
CC(Oc1ccccc1F)C(=O)NN (centres undefined) | 0.695 | 1.0 | i | -3.2 | -0.1 | 1.6 | 5.3
CC(=O)N1CCCc2cc(S(=O)(=O)N3CCCC(C(=O)Nc4ccc(C)cc4C)C3)ccc21 (centres undefined) | 0.691 | -3.9 | i | 3.3 | -1.9 | -6.1 | 3.5

Next part:
SMILES | E coli growth | ALR H2O2 inh | FGF22 binding | LANA-H2A inh | HNF4A DNA FP | B2AR ag | UCH37 DUB inh
C=CCn1c(SCC(=O)O)nnc1-c1cccs1 | 0.7 | -11.9 | nt | 0.2 | 4.7 | 0.0 | -0.8
N#C/C(=C/c1cccc(C(F)(F)F)c1)c1nc(CCN2C(=O)c3ccccc3C2=O)cs1 | 0.711 | -4.3 | nt | -0.7 | -3.5 | 8.5 | -59.4
Cc1ccc(Nc2ccc(C(=O)N3CCCC3)cn2)c(C)c1 | 0.704 | 1.3 | nt | 5.9 | -2.4 | -2.3 | 1.1
O=C(Nc1ccc(F)cc1)/C(=C1/CCCCCN1)[N+](=O)[O-] | 0.727 | -4.7 | i | -2.8 | 2.8 | -9.8 | 11.1
COc1ccc(OC)c(/C=C/C(=O)OCC(=O)Nc2nnc(-c3ccccc3)o2)c1 | nt | 6.4 | i | -1.2 | -1.0 | 2.1 | nt
CCCn1c(=O)c(C(=O)NCCCc2ccccc2)c(O)c2ccccc21 | 0.717 | 8.5 | i | -9.3 | 6.1 | -3.8 | 1.4
Cc1oc(-c2cccc(Br)c2)[n+]([O-])c1C | 0.69 | 4.8 | i | 4.0 | 0.2 | -1.4 | 1.6
CCc1cccc(C)c1N(C(=O)Cn1c(COC)nc2ccccc21)C(C)COC (centres undefined) | 0.686 | -9.7 | nt | -1.1 | 3.3 | -1.8 | 0.6
Cc1cc(NC(=O)c2noc3c2CCCCC3)nn1Cc1ccc(Cl)cc1 | 0.679 | -4.1 | nt | 6.3 | -0.1 | -7.5 | -4.4
CCN(CC)S(=O)(=O)c1ccc(/C(O)=C2/C(=O)C(=O)N(CCOC)C2c2ccccc2)cc1 (centres undefined) | 0.71 | -3.6 | nt | -0.1 | 0.8 | -8.2 | 11.4
COC(=O)CN1C(=S)N(c2ccc(F)cc2)C(=O)C1CC(=O)Nc1ccc(F)cc1 (centres undefined) | 0.678 | -1.6 | i | 0.8 | -1.6 | 5.6 | 2.1
CCOC(=O)c1ccc2c(c1)nc(COc1ccc(OC)cc1)n2CC | 0.722 | nt | nt | nt | 2.5 | 1.8 | 0.0
O=S(=O)(c1cnc[nH]1)N1CCN(c2ccc(F)cc2)CC1 | 0.69 | -7.2 | i | 110.8* | -0.3 | 18.1 | 1.4
CN(C)CCNC(=S)Nc1ccccc1C(C)(C)C | 0.679 | -1.1 | i | -1.8 | -0.9 | 0.4 | 4.2
Cc1ccc(C(=O)CCNc2ccc(Br)cc2)o1 | 0.663 | 44.3 | nt | -15.1 | 3.5 | 21.6 | 5.6
O=C(NC(=S)NCc1cccnc1)c1cccc2ccccc12 | 0.66 | -0.1 | i | 0.4 | -3.4 | 9.4 | 4.6
CSc1nc2ncc3c(n2n1)CC1c2ccccc2CCN1C3=O (centres undefined) | 0.711 | 15.9 | nt | 2.8 | 3.8 | -3.0 | -239.3
CCn1c(SCC(=O)N/N=C/C(C)=C/c2ccco2)nnc1-c1ccccc1 | nt | -59.7 | nt | 4.0 | 0.3 | 3.4 | nt
CCCCN1CC(=O)N2[C@H]3c4cc(Br)ccc4OC[C@@H]3[C@H](C(=O)OCC)[C@]2(C)C1=O | nt | -0.7 | i | 1.6 | -3.9 | -7.3 | 3.5
CCn1c(SCc2ccc(OC)cc2)nnc1-c1ccncc1 | 0.705 | -3.4 | i | 2.9 | 0.3 | -1.3 | -0.6
Fc1cccc2sc(N3CCOCC3)nc12 | 0.67 | -8.4 | nt | -4.8 | 5.8 | 0.6 | 5.0
O=C(NCC1CCCO1)c1ccc([N+](=O)[O-])s1 (centres undefined) | 0.596 | -58.0 | i | 3.6 | 3.8 | -2.9 | 4.8
O=C(CNCC1CCCO1)Nc1ccc(N2CCCCCC2)cc1 (centres undefined) | 0.713 | nt | nt | -0.5 | 0.9 | 6.5 | 5.8
O=C(CC(c1ccccc1)c1ccco1)Nc1nccs1 (centres undefined) | 0.695 | 2.1 | nt | -0.3 | -0.9 | -2.9 | 2.5
Cc1csc(NC(=O)c2ccc3nc[nH]c3c2)n1 | 0.653 | 22.7 | i | 1.3 | -0.1 | -5.9 | 3.6
O=C1CCN(CCc2ccccc2)CCN1CCSc1ccc(Br)cc1 | 0.637 | nt | i | 4.3 | 1.7 | -4.2 | 3.1
O=C(NC1CCCC1)C(c1cccnc1)N(C(=O)c1csnn1)c1ccccc1Cl (centres undefined) | 0.66 | 3.1 | i | 1.1 | 1.6 | -5.6 | 4.3
COc1ccc(-c2csc(NC(=O)CS(=O)(=O)c3ccc(F)cc3)n2)cc1OC | 0.64 | -10.5 | i | 3.3 | 2.3 | 2.9 | -3.3
N#Cc1cccc(NS(=O)(=O)c2ccc(S(=O)(=O)N3CCOCC3)cc2)c1 | 0.637 | -0.3 | i | -1.4 | 2.8 | 0.7 | 0.9
COc1ccc(NC(=O)COC(=O)c2cc(=O)c3ccccc3o2)cc1OC | 0.64 | 0.9 | i | -1.7 | 0.5 | -0.6 | 2.7
CCOC(=O)Nc1sc(=S)n(C)c1C | 0.661 | 92.7* | nt | -7.9 | -5.6 | -9.7 | 3.7

Compound activity deposited in PubChem BioAssay by several laboratories.
